# Assay outcomes from PubChem.
# NS1 inh – qHTS Assay for Inhibitors of Influenza NS1 Protein Function; S. cerevisiae slowed by influenza A NS1, growth recovery by OD600; Potency, µM (titrated, usually from 46.1 µM), without a hit: at the highest dose activity, positive = more growth; hit rate 0.4% among 270,000; AID 2326, 2010; note: actives are rising curves; nearly all actives have a fitted effect of over 50% in size
#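 In this qHTS, NS1 from influenza A is expressed in budding yeast, where it slows growth. Cells are switched from glucose to 2% galactose medium (pH 6.0, -URA), treated with compound, and growth recovery is read at OD600.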
# LASV entry inh – qHTS for Inhibitors of binding or entry into cells for Lassa Virus; Lassa virus pseudotype entry inhibition, cell reporter; control for the full effect not named in the record; Potency, µM (top dose mostly 37.9 µM), inactives show top-dose activity change, negative = inhibition, most hits filed as inhibitors; hit rate 1.2% among 300,000; AID 540256, 2011; active means well fitted inhibition curve with a large enough effect; inconclusive means small, poorly fitted or top-dose-only effect, or effect the other way; inactive means flat fitted curve, though single readings scatter; tested in HEK293 cells; note: % is set by controls: 0 for no effect and ±100 for the full control effect; nearly all actives have a fitted effect of over 50% in size; luciferase read-out
# SARS PLpro yeast – qHTS of Yeast-based Assay for SARS-CoV PLP. hit rate 0.19% among 330,000. S. cerevisiae expressing SARS-CoV PLpro, growth rescue; control for the full effect not named in the record. Potency, µM (highest dose often 32.9 µM), without a hit: at the highest dose activity, positive = growth rescue; note: 0% is about no effect; nearly all actives have a fitted effect of over 55% in size; growth read by luminescence after 48 h
# Cruzain noTriton – qHTS Assay for Promiscuous and Specific Inhibitors of Cruzain (without detergent); Cruzipain (Trypanosoma cruzi), P25779; Potency, µM, for the others: max response, negative = inhibition, most hits filed as inhibitors; purified cruzain, Z-FR-AMC fluorescence, no detergent; hit rate 2.3% among 200,000; active = well fitted curve in the direction sought with a large enough effect; inconclusive = small, poorly fitted or top-dose-only effect, or another doubt; inactive = no such curve, though single readings can be large; an effect the other way counts as inactive or inconclusive;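 note: plate controls were enzyme without inhibitor for no effect and buffer without enzyme for full effect; nearly all actives have a fitted effect of over 40% in size; top concentration of the series not given in the record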
# Target sequence (P25779 123-467 limits assumed): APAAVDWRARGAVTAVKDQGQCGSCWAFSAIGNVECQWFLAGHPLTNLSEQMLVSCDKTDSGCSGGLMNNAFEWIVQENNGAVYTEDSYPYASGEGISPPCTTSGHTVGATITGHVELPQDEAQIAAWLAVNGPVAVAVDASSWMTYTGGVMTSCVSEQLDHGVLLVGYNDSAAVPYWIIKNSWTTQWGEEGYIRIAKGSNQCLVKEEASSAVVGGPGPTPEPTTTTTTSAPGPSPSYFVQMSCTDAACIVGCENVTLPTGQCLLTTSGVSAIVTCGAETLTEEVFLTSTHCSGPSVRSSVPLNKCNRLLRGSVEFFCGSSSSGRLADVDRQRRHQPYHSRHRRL
#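 Purified cruzain at 1.5 nM, pre-incubated 15 min with compound at room temperature in 100 mM sodium acetate pH 5.5, 5 mM DTT, 0.00005% Triton X-100. Reaction started with 2 uM Z-FR-AMC; AMC fluorescence increase over 60 s gives rate.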
# MARV entry inh – qHTS for inhibitors of binding or entry into cells for Marburg Virus; Marburg virus pseudotyped entry inhibition, cell reporter; control for the full effect not named in the record; about a third of the inactives were read at about 46 µM; Potency, µM (doses to about 37.8 µM), inactives show at the top dose activity change, negative = inhibition, hits mostly inhibitors; hit rate 1.8% among 300,000; AID 540276, 2011; active = well fitted inhibition curve with a large enough effect; inconclusive = small, poorly fitted or top-dose-only effect, or effect the other way; inactive = flat fitted curve, though single readings scatter; tested in HEK293 cells; about a fifth of its hits are not listed in these tables; note: % is set by controls: 0 for no effect and ±100 for the full control effect; luciferase read-out
# Cruzain inh Det – qHTS Assay for Promiscuous and Specific Inhibitors of Cruzain (with detergent); Cruzipain (Trypanosoma cruzi), P25779; purified cruzain, Z-FR-AMC fluorescence, 0.01% Triton; Potency, µM, for inactives: max response, negative = inhibition, usual class: inhibitors; hit rate 0.43% among 200,000; active = well fitted curve in the direction sought with a large enough effect; inconclusive = small, poorly fitted or top-dose-only effect, or another doubt; inactive = no such curve, though single readings can be large; an effect the other way counts as inactive or inconclusive;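 note: plate controls were neutral wells for no effect and buffer without enzyme for full effect; nearly all actives have a fitted effect of over 40% in size; top concentration of the series not given in the record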
#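 Cysteine protease activity tested under reducing, mildly acidic conditions (100 mM sodium acetate pH 5.5, 5 mM DTT) plus 0.01% Triton X-100. Cruzain 1.5 nM; substrate Z-FR-AMC 2 uM; 15 min compound preincubation at room temperature.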
# RE007 growth inh – qHTS Assay for Inhibitors of the HIV-1 protein Vpr; S. pombe RE007 Vpr strain, BacTiter-Glo ATP luminescence, 24 h; control for the full effect not named in the record; Potency, µM (titrated, usually from 92.2 µM), inactives show at the top dose activity change, negative = less growth; hit rate 0.21% among 360,000; AID 651644, 2012; active = well fitted falling curve with a large enough effect; inconclusive = small, poorly fitted or top-dose-only effect; inactive = no such curve, though single readings can be large or run the other way;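 note: % is set by controls: 0 for no effect and ±100 for the full control effect; nearly all actives have a fitted effect of over 50% in size; the assay follows cell death caused by Vpr and the record does not say whether a fall means rescue or toxicity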
#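 Fission yeast strain RE007, carrying one chromosomally integrated HIV-1 vpr copy, was seeded at OD 0.01 in PMG+AL medium with 23 nL pinned compound. After 24 h at 30 °C and 99% humidity, viability was read by BacTiter-Glo luminescence.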
# StopGo reporter – High Throughput Screening for Foot and Mouth Disease Virus Antivirals; human cells with a luciferase reporter of 2A StopGo recoding; control for the full effect not named in the record; Potency, µM (titrated, usually from 57.9 µM), for the others: top-dose signal change, negative = less light; hit rate 1.2% among 410,000; AID 1159524, 2015; active = well fitted falling curve with a large enough effect; inconclusive = small, poorly fitted or top-dose-only effect; inactive = no such curve, though single readings can be large or run the other way; tested in HEK293T cells; note: % is set by controls: 0 for no effect and ±100 for the full control effect; nearly all actives have a fitted effect of over 45% in size; luciferase light after 4 h
# * hit, by the source's call; ? = inconclusive; / = no result given; & = joins results of further samples; [ ] = another dose, or the depositor's remark. Unless noted, calls come from the whole dose curve; as a rule, active means well fitted rising curve with a large enough effect; inconclusive means small, poorly fitted or top-dose-only effect; inactive means no such curve, though single readings can be large or run the other way. Potency is the fitted concentration of half-maximal effect.
SMILES,NS1 inh,LASV entry inh,SARS PLpro yeast,Cruzain noTriton,MARV entry inh,Cruzain inh Det,RE007 growth inh,StopGo reporter
O=C(N[C@@H](Cc1ccccc1)C(=O)OCc1ccccc1)c1nc[nH]c1C(=O)NC(c1ccccc1)c1ccccc1,7%,/,-1%,/,/,/,-1%,0%
CSc1nc2[nH]c3c(c2c2nncn12)CC(C)(C)OC3,17%,8%,-1%,-1%,?,-5.0%,1%,?
O=C(NCc1ccccc1)c1cc(-n2cnnc2)ccc1Cl,-6%,1%,1%,3%,-4%[46.1 µM],5.0%,26%,-12%
CN(C)C1(CNC(=O)C2CCN(S(=O)(=O)c3cc(Cl)ccc3Cl)CC2)CCCCC1,8%,?,2%,/,?,/,3%,-12%
O=C(CCS(=O)(=O)c1ccc(Br)cc1)Nc1ccc(F)cc1F,/,19%[46.1 µM],/,-7%,/,-0.2%,/,2%
CC(C(=O)c1c[nH]c2ccccc12)N1CCSCC1 (stereo not given),16%,1%,1%,6%,7%,4.6%,-1%,0%
Cc1cccc(C)c1NC(=O)CSc1nc(-c2cccs2)cc(C(F)(F)F)n1,/,2%[46.1 µM],/,-4%,10%[46.1 µM],-2.5%,/,-9%
O=C(NC(CSCc1ccccc1)C(=O)N/N=C/c1ccc(O)cc1O)c1ccc([N+](=O)[O-])cc1 (stereo not given),3%,9.2µM*,25%,3%,4.6µM*,-3.2%,-16%,-21%
CCn1c(Cc2c(C)[nH]c3ccccc23)nnc1SCC(N)=O,-1%,0%,-4%,10%,17%,7.6%,-3%,/
C/C(Cl)=C/Cn1c(=O)c2c(nc(Br)n2Cc2ccccc2)n(C)c1=O,2%,-13%,-3%,-7%,16%,-4.9%,-7%,?
CC(=O)Cc1nsc(NC(=O)c2ccc(-c3cc(C(F)(F)F)ccc3Cl)o2)n1,0%,?,0%,-7%,-6%&-11%,1.9%,2%,-29%
COc1ccc(C2NC(=O)N(C)C3=C2C(=O)N(c2ccccc2)C3)cc1 (stereo not given),/,9%[46.1 µM],/,0%,-1%[46.1 µM],-6.3%,/,7%
Cc1cccc(NC(=O)CCc2nc3sc4c(c3c(=O)[nH]2)CCCC4)n1,/,20%,/,/,?,/,2%,-5%
CCC1CN(C(=O)N2CCC(C(=O)NCc3ccc(C)o3)CC2)c2cc(C)ccc2O1 (stereo not given),0%,?,0%,-8%,/,-6.9%,8%,?
CCC(C)[C@H](NC(=O)NCc1cccnc1)C(=O)OC (stereo not given in full),2%,/,1%,/,/,/,11%,-2%
CC/C(=N/NS(=O)(=O)c1ccc(Cl)cc1)c1ccc(O)cc1,1%,-19%,-3%,7%,-18%,0.1%,-6%,?
O=C1CC(c2cc([N+](=O)[O-])ccc2Cl)c2c(ccc3ccccc23)N1 (stereo not given),3%,-15%,20%,3%,?,1.6%,-16%,-22%
O=C(Nc1ccc(F)cc1F)Nc1sccc1-c1nc2ccccc2s1,7%,/,1%,/,/,/,1%,-13%
O=[N+]([O-])c1c(NCCCO)cc(N2CCN(Cc3ccc4c(c3)OCO4)CC2)c2nonc12,7%,?,-4%,?,?,-4.6%,7%,18µM*
O=C1NC(=O)C(CC(=O)N(Cc2ccco2)C2(C(=O)NC3CCCC3)CCCCC2)N1 (stereo not given),?,22%,-2%,2%,-3%,6.1%,16%,-2%

# In a second layout: results already given.
> CCC(C)[C@H](NC(=O)NCc1cccnc1)C(=O)OC (stereo not given in full)
  NS1 inh = 2%	LASV entry inh = /	SARS PLpro yeast = 1%	Cruzain noTriton = /	MARV entry inh = /	Cruzain inh Det = /	RE007 growth inh = 11%	StopGo reporter = -2%

> CC/C(=N/NS(=O)(=O)c1ccc(Cl)cc1)c1ccc(O)cc1
  NS1 inh = 1%	LASV entry inh = -19%	SARS PLpro yeast = -3%	Cruzain noTriton = 7%	MARV entry inh = -18%	Cruzain inh Det = 0.1%	RE007 growth inh = -6%	StopGo reporter = ?

> Cc1cccc(NC(=O)CCc2nc3sc4c(c3c(=O)[nH]2)CCCC4)n1
  NS1 inh = /	LASV entry inh = 20%	SARS PLpro yeast = /	Cruzain noTriton = /	MARV entry inh = ?	Cruzain inh Det = /	RE007 growth inh = 2%	StopGo reporter = -5%

> Cc1cccc(C)c1NC(=O)CSc1nc(-c2cccs2)cc(C(F)(F)F)n1
  NS1 inh = /	LASV entry inh = 2%[46.1 µM]	SARS PLpro yeast = /	Cruzain noTriton = -4%	MARV entry inh = 10%[46.1 µM]	Cruzain inh Det = -2.5%	RE007 growth inh = /	StopGo reporter = -9%

# (cont.)
SMILES,NS1 inh,LASV entry inh,SARS PLpro yeast,Cruzain noTriton,MARV entry inh,Cruzain inh Det,RE007 growth inh,StopGo reporter
O=C(CSc1nc(-c2ccccc2)nc2ccc(F)cc12)Nc1ccc(C(=O)O)cc1,9%,3%[46.1 µM],-6%,/,1%[46.1 µM],/,-4%,-22%
O=C(Nc1ccc2nc(SCC(=O)N3CCCc4ccccc43)sc2c1)c1ccccc1F,/,?,/,?,?,-5.7%,/,-23%
CCOC(=O)CNc1ccc(C(=O)OCC)cc1[N+](=O)[O-],5%,4%,23%,0%,1%,-0.4%,-14%,3%
CC(=O)Nc1ccc(S(=O)(=O)NCCC(=O)NCC2COc3ccccc3O2)cc1 (stereo not given),-9%,0%,?,/,3%,/,6%,3%
COc1cccc(-n2cc(C(=O)NC(C)C)c3ccccc3c2=O)c1,4%,?,0%,/,25%,/,5%,-9%
COc1ccccc1NC(=O)c1ccc(-c2nc(COc3ccc(C)cc3)c(C)o2)cc1,/,-13%[46.1 µM],/,1%,/,-5.3%,/,?
COc1cccc(C=Nc2ccc3c(c2)OCCO3)c1O,?,10%,3%,-8%,-23%,0.5%,0%,0%
COc1ccc(NC(=S)N2CCN(CCN3C(=O)c4cccc5cccc(c45)C3=O)CC2)cc1,-3%,-7%,0%,/,?,/,-13%,-16%
COc1cc2c(cc1OC)C(c1cccc([N+](=O)[O-])c1)N(C(=O)CCC(=O)O)CC2 (stereo not given),1%,/,1%,/,/,/,10%,-20%
COc1cccc(N2C(=O)NC(=O)/C(=C\c3cn(C)c4ccccc34)C2=O)c1,0%,/,0%,/,/,/,0%,-17%
CCCCN(CC)CCCNC(=O)CN1C(=O)CSc2ccc(S(=O)(=O)N3CCOCC3)cc21,/,18%,-2%,-12%,1%&1%,0.8%,-3%,-9%&-14%
O=C(NCc1ccccc1)C(=O)Nc1nc(C23CC4CC(CC(C4)C2)C3)cs1,2%,-1%,3%,?,4%,-3.8%,-18%,?
O=C(/C=C/c1ccccc1)C1=C(O)C(=O)N(CCO)C1c1ccccc1[N+](=O)[O-] (stereo not given),8%,-6%,1%,/,3%[46.1 µM],/,2%,12%
COc1cc2c(C(=O)NCCCOC(C)C)cn(CC(C)C)c(=O)c2cc1OC,-3%,-4%,-2%,27%,23%[46.1 µM],-0.6%,15%,-26%
CCCCCCC1CC(CC(=O)Nc2ccc([N+](=O)[O-])cc2)C(=O)O1 (stereo not given),5%,-4%,-25%,-8%,?,-13%,5%,-11%
CNc1c(NS(=O)(=O)c2ccc(CC(C)C)cc2)c(=O)oc2ccccc12,-11%,9%[46.1 µM],-3%,/,0%[46.1 µM],/,-7%,7%
COCCOC(=O)CC1=NC(=O)CS1,8%,-1%,?,-5%,-17%,1.3%,12%,3%
CN(Cc1ccccc1)CC1C2CCC(C2)C1O (stereo not given),/,10%[46.1 µM],/,/,?,/,16%,-18%
O=C(CC1(O)C(=O)Nc2ccccc21)c1cccc(Br)c1 (stereo not given),?,14%,28%,-1%,6%,-3.3%,0%,-15%
O=C(Nc1ccccc1)Nc1cccc(-c2cn3cccnc3n2)c1,-11%,/,-2%,/,-27%[46.1 µM],/,-3%,-24%
CCOc1ccccc1C(=O)Nc1cc(-c2ccc(C)cc2)no1,/,25%[46.1 µM],/,-27%,?,-2.5%,/,11%
CCc1nonc1NC(=O)c1oc2ccc(C)cc2c1C,0%,29%[46.1 µM],-1%,-11%,?,1.1%,1%,60%&24%[activator]
Cc1ccc(-c2c(C#N)c(N)nc3c2CCCCC3)o1,-15%,1%,-5%,?,8%,-0.2%,10%,0%
O=C(CNC(=O)C1CC1)Nc1ccc(F)c(F)c1F,/,29%[46.1 µM],0%,/,3%[46.1 µM],/,4%,10%
COC(=O)c1ccc(OCC2NCCc3cc(OC)c(OC)cc32)cc1 (stereo not given),-3%,/,0%,/,/,/,-21%,?
NC(=O)CCC(C(=O)O)N1C(=O)c2ccc(O)cc2C1=O (stereo not given),-3%,-7%,1%,/,9%[46.1 µM],/,7%,-6%
CCN(C(=O)c1cc2c(=O)n3cccc(C)c3nc2s1)C1CCCCC1,-21%,6%[46.1 µM],-3%,/,21%[46.1 µM],/,-2%,43%[activator]
CCOc1ccc(S(=O)(=O)n2nc(C)c(S(=O)(=O)N3CCOCC3)c2C)cc1,4%,/,-8%,/,/,/,-1%,-4%

# Whole records from above. Order of values: NS1 inh	LASV entry inh	SARS PLpro yeast	Cruzain noTriton	MARV entry inh	Cruzain inh Det	RE007 growth inh	StopGo reporter
# CSc1nc2[nH]c3c(c2c2nncn12)CC(C)(C)OC3 is listed with 17%	8%	-1%	-1%	?	-5.0%	1%	?
# O=C(NCc1ccccc1)C(=O)Nc1nc(C23CC4CC(CC(C4)C2)C3)cs1 is listed with 2%	-1%	3%	?	4%	-3.8%	-18%	?
